# Compound activity: PubChem BioAssay, National Center for Advancing Translational Sciences (NCATS)
# Vaccinia Venus – inhibitors of vaccinia virus (Venus reporter); Vaccinia virus Venus reporter expression, fluorescence; Potency, µM (top dose mostly 36.5 µM), inactives show at the highest dose activity change, negative = inhibition, most hits filed as inhibitors; 0.46% of 330,000 active; AID 720580; active means well fitted inhibition curve with a large enough effect; inconclusive means small, poorly fitted or top-dose-only effect; inactive means no such curve, though single readings can be large or run the other way; tested in A549 cells; also: nearly all actives have a fitted effect of over 30% in size; inactives centre near -10
# VACV mCherry inh – inhibitors of vaccinia virus infection (mCherry reporter signal); 0.63% of 310,000 active; Potency, µM (top dose mostly 36.5 µM), for the others: top-dose activity change, negative = inhibition, hits mostly inhibitors; AID 720579; Vaccinia virus mCherry reporter infection, fluorescence; about a quarter of the inactives have no number; active = well fitted inhibition curve with a large enough effect; inconclusive = small, poorly fitted or top-dose-only effect; inactive = no such curve, though single readings can be large or run the other way; tested in A549 cells; also: nearly all actives have a fitted effect of over 35% in size; inactives centre near -10
# Starred values were filed as active, the others as inactive; i = inactive; ? = inconclusive; · = no result given; & = joins results of further samples; [ ] = another dose, or the depositor's remark. % is scaled to controls: 0 for no effect and ±100 for the full control effect; potency is read from the fitted curve at half-maximal effect.
# Below each compound: Vaccinia Venus, VACV mCherry inh
- O=C(COC(=O)/C=C/c1ccc(Cl)c(Cl)c1)NC1CCS(=O)(=O)C1 (centres undefined)
  -8%, -13%
- CC(=O)Nc1ccc(NC(=O)CSc2nc(=O)n(CCCN3CCOCC3)c3c2CCC3)cc1
  -19%, -6%
- CC(C)(C)c1ccccc1NC(=O)c1cc(-c2ccncc2)nc2ccccc12
  0%, -4%
- CC/C(Cc1ccccc1)=N\NC(=O)c1cc([N+](=O)[O-])cc([N+](=O)[O-])c1
  -11%, ?
- CCCCn1c(SCC(=O)Nc2nnc(C)s2)nnc1-c1ccoc1C
  -23%, i
- O=C1C2CC=CCC2C(=O)N1c1ccc(N2CCN(c3ccccn3)CC2)c([N+](=O)[O-])c1 (centres undefined)
  -16%, -12%
- CC1CN(C(=S)Nc2cccc(F)c2)CC(C)O1 (centres undefined)
  -4%, i
- Fc1ccccc1N1CCN(Cc2nc(-c3ccc(Cl)cc3Cl)no2)CC1
  -20%, -2%
- CC(C)n1nnnc1C1c2ccccc2C(=O)N1CCOc1ccccc1 (centres undefined)
  1%, 44%[activator]
- CC(=O)c1c(C)[nH]c(C(=O)OCC(=O)Nc2cccc(S(=O)(=O)N(C)C)c2)c1C
  -12%, i
- Cn1cccc1/C=N/NC(=O)CNc1cccc2ccccc12
  -10%, ?
- Oc1ccc(Cl)cc1CNCc1cccc2ccccc12
  ?, -27%
- COC(=O)c1cccc(-c2cc(Cl)c3c(c2)CC(CNC(=O)c2cccnc2)O3)c1 (centres undefined)
  0%, -9%
- OCCNc1cc(-n2nc(-c3ccccc3)cc2-c2ccccc2)ncn1
  ?, ?
- CCNS(=O)(=O)c1ccc(S(=O)(=O)N(Cc2ccccn2)C2CCCCC2)cc1
  -17%, -23%
- CCn1ncc(C2=NOC(C(=O)Nc3c(C)nn(Cc4ccc(F)cc4)c3C)C2)c1C (centres undefined)
  -12%, i
- OC1c2cc(Cl)cc(Cl)c2N=C2CCCN21 (centres undefined)
  2%, 2%
- CCN(Cc1cc2ccccc2[nH]c1=O)C(=O)C1CCCCC1
  -10%, i
- Nc1cc(=O)[nH]c(=O)n1Cc1ccccc1
  -10%, i
- C=CCn1c(C)cc(C(=O)COC(=O)c2n[nH]c(=O)c3ccccc23)c1C
  -15%, -10%
- CCOC(=O)c1ccc(NC(=O)CSc2c3c(nc4cc(Cl)ccc24)CCCC3)cc1
  -9%, 4%
- COCCNC(=O)c1ccccc1NC(=O)c1ccccc1N(C)S(=O)(=O)c1ccc(C)cc1
  -18%, ·
- CC(C)OCCCNS(=O)(=O)c1ccc2c(c1)oc(=O)n2C
  -3%, -21%
- O=C(c1n[nH]c2c1CCCC2)N1CCOc2ccc(C(O)C3CCCCC3)cc2C1 (centres undefined)
  -2%, -3%
- Cc1ccc(NC(=O)Cn2c(=O)n(Cc3ccc4c(c3)OCO4)c(=O)c3ccc(C(=O)NC4CCCCC4)cc32)cc1
  -7%, -7%
- O=C(C1CCCN(S(=O)(=O)c2cccs2)C1)N1CCc2ccccc2C1 (centres undefined)
  ?, ·
- COc1ccc(N/C(C)=C/C(=O)c2ccccc2)cc1
  -15%, i
- CC1=C(C(=O)N2CCOCC2)C(c2ccc(-c3ccccc3)cc2)NC(=S)N1 (centres undefined)
  -9%, -1%
- CCCCn1nnnc1C(c1cccc2ccccc12)N1CCN(C/C=C/c2ccccc2)CC1 (centres undefined)
  -10%, 7%
- Cc1onc(-c2ccccc2Cl)c1C(=O)N(C)Cc1ccccc1
  -2%, i
- CC(C)=N/N=C1/NC(=O)C(c2ccc(Cl)cc2)S1 (centres undefined)
  -13%, -25%
- CCCC1=Nc2cc(C(=O)NCc3ccc(OC)cc3)ccc2Sc2ccc(C)cc21
  -24%, ?
- Cc1cnc(CNC(=O)c2ccc3sc([C@H]4C[C@H](O)[C@@H](CO)O4)nc3c2)cn1
  -1%, -7%
- CC(=O)c1ccc(NC(=O)C(C)Sc2nnc3ccccn23)cc1 (centres undefined)
  0%, i
- CC(=O)c1ccc(C(=O)N(Cc2cccnc2)c2nc3c(C)c(C)ccc3s2)cc1
  -24%, -8%
- Cc1ccc(C(C)C)c(OCC(=O)Nn2c(=O)[nH]c3ccccc3c2=O)c1
  -7%, -22%
- C/C(=N\NC(=O)c1nnn(-c2nonc2N)c1CN1CCCCC1)c1ccccc1O
  -4%, -19%
- Cc1ccc(-c2nn(C)c(=O)c3ccccc23)cc1S(=O)(=O)NCCN1CCOCC1
  -2%, ·
- Cc1ccc(C2c3cccn3CCN2S(=O)(=O)c2ccc([N+](=O)[O-])cc2)cc1 (centres undefined)
  -28%, ?
- Cc1cc(C)n(CC(C)(O)c2ccccc2)n1 (centres undefined)
  -19%, i
- Cn1c(=O)c2c(nc(N3CCCC3)n2CC(O)CO)n(C)c1=O (centres undefined)
  -8%, -3%
- O=C(Nn1nnnc1Nc1ccccc1)C12CC3CC(CC(C3)C1)C2
  ?, ·
- CC(C)C1C2=C(CC(C)(C)CC2=O)ON1c1ccccc1 (centres undefined)
  -20%, -16%
- Cn1c(=O)c2nc(NCc3ccccc3)sc2n(C)c1=O
  4%, -9%
- N#CC(C#N)=Cc1cnc(N2CCN(c3ccccc3)CC2)s1
  -14%, -4%
- Cc1cc(/C=C2\C(=N)N3C(SCc4ccccc4)=NSC3=NC2=O)c(C)n1Cc1ccccc1
  -5%, -19%
- NS(=O)(=O)c1ccc(NC(=S)NC(=O)c2cccnc2)cc1
  0%, 1%
- C[C@H](O)[C@@H]1C(=O)N2CCc3c([nH]c4ccccc34)[C@@H]2C[C@@H]1N(C)C(=O)NC1CCCCC1
  ?, i
- CCCCNC(=O)Nc1cc(C(=O)OC)ccc1C
  -10%, i
- O=C(/C=C/c1cccs1)Nc1ccncc1
  -24%, -7%
- CCc1cc(=O)[nH]c(-n2[nH]c(-c3ccccc3)cc2=O)n1
  -5%, -10%
- COc1ccc(S(=O)(=O)N2CCCOC2CNC(=O)C(=O)NC2CCCC2)cc1 (centres undefined)
  -1%, -4%
- CCOc1ccc(CNC(=O)C2CCN(S(=O)(=O)N3CCCCC3)CC2)cc1
  -9%, 1%
- CCc1nnc(NC(=O)CSc2nnc(-c3ccccc3O)o2)s1
  -19%, -13%
- Cc1cc2cc(CCNC(=O)C(C)C)c(=O)[nH]c2cc1C
  -5%, i
- O=C(CSc1nc2sc3c(c2c(=O)n1-c1ccccc1)CCCC3)N/N=C/c1ccc(C(=O)O)cc1
  -15%, i
- Cc1ccc(C(=O)NC2CCN(CCCC(=O)c3ccc(F)cc3)CC2)cc1
  -11%, -23%
- O=C(O)c1c(-c2ccccc2)c(-c2ccccc2)nc2ccccc12
  -1%, 13%
- O=C(Nc1ccnn1C1CCN(C(=O)Cc2ccccc2F)CC1)C1CC1
  -16%, -15%
- COCc1cc(C)nc2sc(C(=O)NC3CCCCC3)c(N)c12
  -24%, ·

# The list goes on.
# Below each compound: Vaccinia Venus, VACV mCherry inh
- CCCCC1CCC(/C(N)=N/O)CC1 (centres undefined)
  -10%, -13%
- CCN1CCN(C(=S)Nc2cc(S(=O)(=O)N(CC)CC)ccc2C)CC1
  -15%, -4%
- CCCCCCNC(=O)C(C(=O)OCC)C1CCCCC1 (centres undefined)
  -12%, i
- Cc1cc(C)nc(Nc2nc3ccccc3s2)n1
  -2%, 9%
- CCCOc1ccc(F)cc1-c1cc(C(=O)Nc2ccc(C)c(NS(C)(=O)=O)c2)[nH]n1
  -30%, ?
- CN(Cc1ccccc1)C(=O)c1ccc(NC(=O)Cc2cccc(NC(=O)C3CCN(C(=O)C4CC4)CC3)c2)cc1
  -24%, i
- Cc1ccc(Nc2nc(N)c([N+](=O)[O-])c(N3CCOCC3)n2)cc1
  -19%, -1%
- O=C(NCc1ccc(OC(F)(F)F)cc1)C1CC(c2ccccc2C(F)(F)F)=NO1 (centres undefined)
  -7%, -25%
- Cc1ccccc1S(=O)(=O)c1c(C)cc(C)n(CC(C)C)c1=O
  -21%, -20%
- COc1ccc(NC(=O)C2CC23CCN(Cc2cccc4ncccc24)CC3)cc1Cl (centres undefined)
  -14%, -18%
- Cc1ccc(-n2c(COc3c(C)cccc3C)nnc2SCC(=O)Nc2nccs2)cc1
  -8%, 0%
- COC(=O)c1[nH]c2cccc(Cl)c2c1NC(=O)CN(C)C1CCCCC1
  -9%, ·
- O=C(COC(=O)c1cc(=O)[nH]c(=O)[nH]1)Nc1cccc(S(=O)(=O)N2CCOCC2)c1
  -8%, i
- O=C(NCCn1cccn1)C1CCC(=O)N(CCc2ccccc2)C1 (centres undefined)
  -14%, -15%
- Cc1cccc(NC(=S)N2CCC(NC(=O)C3CCCCC3)CC2)c1
  -22%, -26%
- CCN1CCN(c2ccc(NS(=O)(=O)c3c(C)nc4sccn4c3=O)cc2Cl)CC1
  -11%[7.34 µM], -16%[7.34 µM]
- CCOc1ccc(S(=O)(=O)NCc2ccncc2)cc1NC(=O)c1ccccc1
  -20%, -9%
- Cc1ccc2nc(-c3ccc(N=Nc4cc(S(=O)(=O)O)c5ccccc5c4O)cc3)sc2c1S(=O)(=O)O
  98%[activator], 40%[activator]
- CSc1cccc(NC(=S)N(Cc2ccc(C)cc2)Cc2ccccn2)c1
  -3%, -2%
- C=C(C)CN=CC1(C)CCC(C)=CO1 (centres undefined)
  -13%, i
- CCCOc1ccc(CNC(=O)Cn2c(=O)oc3ccccc32)cc1
  -1%&-2%, -6%
- Cc1onc(-c2ccccc2Cl)c1C(=O)NCCCc1ccccc1
  -3%, -1%
- CCOC(=O)c1cnc2nc(NCc3ccc(OC)c(OC)c3)[nH]n2c1=O
  -8%, ·
- CCOC(=O)C(=O)N(C)c1c(CC)nc2c(OCCC3CCCCC3)cccn12
  -18%, -9%
- COc1ccc(CNC(=O)CCC2N=C3c4ccccc4N=C(SCc4ccccc4F)N3C2=O)cc1 (centres undefined)
  -15%, -18%
- N#CCCn1c(SCC(=O)c2c[nH]c3ccccc23)nc2ccccc21
  -5%, ·
- COc1ccccc1N1CCN(C(=O)c2c(C)cc(=O)oc2C)CC1
  -28%, ·
- O=C(CCCCCN1C(=O)CCC1=O)NCc1ccccc1
  -5%, -6%
- Cc1cc(Nc2ccccc2O)nc(C)n1
  -4%, -2%
- CC(C)CN1C(=O)C(=O)N(CC(=O)NC(C)CCc2ccccc2)C1=O (centres undefined)
  -10%, -12%
- O=S(=O)(NCCc1csc2nc(-c3ccc(Cl)cc3)nn12)c1cccs1
  -17%, -12%
- CC1=C(c2ccccc2)C(O)(c2ccccc2)C(C)C1=O (centres undefined)
  -28%, ?
- CCOc1ccc2nc(N3CCCC(C(=O)NCc4ccc(C)cc4)C3)sc2c1 (centres undefined)
  -21%, -18%
- O=S(=O)(N=C1C=CC(=NS(=O)(=O)c2ccccc2)c2ccccc21)c1ccccc1
  148%[activator], i
- CCN(c1ccccc1)S(=O)(=O)c1ccc2[nH]cc(C(=O)NCc3ccc(C)cc3)c(=O)c2c1
  -18%, -19%
- C/C(=N/N1CCN(Cc2cccc3ccccc23)CC1)c1cccnc1
  -3%, -26%
- O=C(C[n+]1cc2ccccc2c2ccccc21)c1ccccc1
  -13%, ·
- COCCCNc1nc2c(c(=O)[nH]c(=O)n2C)n1CC(O)COc1ccc(Cl)cc1 (centres undefined)
  -8%, -8%
- CCOC(=O)C1=C(CC)Nc2ccccc2N=C1NC(=O)c1ccc(C)c(S(=O)(=O)N2CCOCC2)c1
  -10%, -13%
- COc1cc(CN(C)c2ncnc3sccc23)ccc1OC(F)F
  -18%, -25%
- COc1ccccc1NC(=O)C1=C(C)NC(=O)NC1c1cccc(OC)c1OC (centres undefined)
  -5%, ·
- Cn1nnnc1SCCNCc1ccccc1Cl
  5%, 5%
- COc1ccc(C(c2nnnn2C2CCCC2)N2CCC(C)CC2)c(OC)c1 (centres undefined)
  -20%, ·
- O=C(NCC1CCCO1)c1c(O)nc2sccn2c1=O (centres undefined)
  4%, -8%
- O=C(CN(Cc1ccccc1)S(=O)(=O)c1ccccc1)N/N=C/c1ccccc1[N+](=O)[O-]
  -21%, -36%
- CC(C(=O)Nc1ccccc1)n1nnc2sc3c(c2c1=O)CCCC3 (centres undefined)
  -7%, -10%
- CCN1C(=O)[C@H]2[C@@H](c3ccc(-c4cccc(Cl)c4)c(OC)c3)N3CCC[C@@]3(C(=O)OC)[C@H]2C1=O
  -25%, -17%
- CCCn1c(N)c(C(=O)CSc2nnc3n2CCCCC3)c(=O)n(C)c1=O
  -8%, i
